T cruzi inh: inhibitors of intracellular T. cruzi growth, primary screen, luminescence, NIH3T3 host cells; T. cruzi beta-gal in NIH3T3, 90 h; inhibition, % (no concentration beside the values); actives 1.4% (n = 300,000); AID 1885, 2009;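 active means mean inhibition across valid replicates above about 55%, limit read from the data; inconclusive means mean below that limit but half or more replicates reach it; inactive means mean below it, under half of replicates reach it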;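 further: signal also drops with host cell toxicity which is not excluded here; 0% = plate median of DMSO wells and 100% = zero luminescence signal; higher percent means less beta-gal luminescence so fewer parasites; stock transfer was 50 nL into about 50 µL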
Calb FLC: C. albicans growth inhibition with fluconazole, primary screen, CaCi-2 strain, Alamar Blue fluorescence; C. albicans CaCi-2 (fluconazole-resistant clinical isolate) + fluconazole, 48 h; growth inhibition, % (test concentration not listed); actives 0.57% (n = 300,000);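 active means most replicates above 75%; inconclusive means exactly half above 75%; inactive means most below 75%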;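 further: all wells also contain fluconazole at 8 µg/ml as a sub-toxic cotreatment; 0% = median of DMSO wells and 100% = median of geldanamycin control wells; wells of about 8 µL received 7.5 nL stock; the first replicate is given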
Beta apoptosis: inhibitors of cytokine-induced beta cell apoptosis, primary screen, luminescence; AID 435005, 2010; INS-1E cytokine-induced death, ATP luminescence, 48 h; percent of positive-control rescue, neutral wells zero; protection from apoptosis, % (test concentration not listed); actives 0.8% (n = 300,000);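 active means all replicates at 75% or more, or half of them and the mean; inconclusive means half reach 75% but not the mean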;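 further: 0% = cytokine-treated negative control wells and 100% = positive control rescue; higher means more ATP so stronger rescue from cytokine killing; wells of about 40 µL received 100 nL stock; the first replicate is given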
Bfl-1 A1 inh: caspase 3/7 activation in MEF A1-2A-BIM cells, primary screen, A1 inhibitor project, cell-based, luminescence, HTS; caspase activation, % (no concentration beside the values); Caspase-Glo 3/7 luminescence, 3 h; percent of clofoctol response, vehicle zero; actives 0.066% (n = 330,000);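 active means over half of replicate activation scores above 10%, or exactly half above 10 with the replicate mean above 10; inconclusive means replicate mean below 10 yet half the replicates above 10; inactive means over half of replicates below 10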;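 further: wells of about 30 µL received 50 nL stock; many hits fall short of the cut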
RanGTP-Imp inh: inhibitors of RanGTP-importin-beta interaction, primary screen, biochemical, FRET, CFP-Ran, YFP-importin-beta, homogeneous; cell-free CFP-Ran/YFP-importin-beta FRET ratio; inhibition, % (concentration not given with the values); actives 1.1% (n = 300,000);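 active means most replicates above 15%; inconclusive means exactly half above 15%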;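 further: 0% = DMSO wells and 100% = Ran loaded with GDP instead of GTP; wells of about 40 µL received 100 nL stock; the first replicate is given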
* hit, by the source's call; ? = inconclusive; · = not tested or not shown; & = joins results of further samples.

SMILES	T cruzi inh	Calb FLC	Beta apoptosis	Bfl-1 A1 inh	RanGTP-Imp inh
CCn1c(SCc2cc(=O)[nH]c3ccccc23)nc2c1c(=O)n(C)c(=O)n2C	·	·	·	-0.6	·
Cc1ccc(Cn2c(=O)c3ccccc3n3c(SCC(=O)N4CCCCC4C)nnc23)cc1 (configuration not stated)	·	·	·	1.1	·
CC(=O)c1ccc(NC(=O)Cn2cnc(S(=O)(=O)N3CCCC3)c2)cc1	-9	3	·	·	-0.5
COc1ccc(OC)c(S(=O)(=O)Nc2c(NC3CCCCC3)c3ccccc3oc2=O)c1	16	16	·	·	3.0
Cc1ccc(C(=O)c2cc([N+](=O)[O-])ccc2N2CCOCC2)cc1	-29	3	·	·	-0.1
Cc1ccc(SC[C@H](c2ccccc2)N2CCN(CC(C)C)CCC2=O)cc1	-3	-9	·	·	3.7
C#CCOCCOCCOCCNc1nc(N2CCN(C(=O)[C@H](CCCCN)n3cc(C(N)CO)nn3)CC2)nc(N2CCN(C(=O)[C@H](CCC(=O)O)n3cc(C(N)CC(C)C)nn3)CC2)n1 (some centres not stated)	-15	5	·	·	?
COC(=O)c1cc(-c2ccccc2)sc1NC(=O)c1cc(C)on1	-15	-3	·	·	-2.1
CC(C)c1cc(C(C)C)c(S(=O)(=O)N2c3ccccc3[C@]3(Br)C[C@H]4C(=O)N[C@@H](Cc5ccccc5)C(=O)N4[C@H]23)c(C(C)C)c1	55*	-1	·	·	-3.0
C#CCOCCOCCOCCNc1nc(N2CCN(C(=O)[C@H](CCC(=O)O)n3cc(C(N)Cc4ccc(O)cc4)nn3)CC2)nc(N2CCN(C(=O)[C@H](CCCCN)n3cc(C(N)[C@H](C)CC)nn3)CC2)n1 (some centres not stated)	-14	2	·	·	3.0
CC1(C(=O)NCCCNc2ncc(C(F)(F)F)cc2Cl)C=CC2(CCCCC2)N1C(=O)c1ccccc1 (configuration not stated)	17	6	·	·	0.6
CCS(=O)(=O)C1=NN2C(=N)/C(=C\c3ccc(SCc4ccco4)o3)C(=O)N=C2S1	-11	-7	·	·	?
C#CCOCCOCCOCCNc1nc(N2CCN(C(=O)[C@H](CCC(=O)O)n3cc(C(N)CO)nn3)CC2)nc(N2CCN(C(=O)[C@H](CCC(=O)O)n3cc(C(N)CC(C)C)nn3)CC2)n1 (some centres not stated)	-8	-1	·	·	?
COC(=O)c1ccccc1NC(=O)CSc1nnc(-c2ccc(C)cc2)o1	-10	-2	·	·	?
CC[C@@H]1CC=C[C@H]2[C@H]1C(=O)N(Cc1ccccc1)[C@H]2c1ccc2ccccc2c1	25	-30	·	·	2.5
Cc1ccc(SCCN2CCN(C)CCC2=O)cc1	-13	-10	·	·	3.3
N#Cc1cccc(S(=O)(=O)Nc2c(NC3CCCCC3)c3ccccc3oc2=O)c1	7	6	·	·	0.4
C=CC[C@@H](CC(=O)N(CCO)Cc1ccccc1)C(=O)N[C@@H](COC(=O)[C@@H](CC=C)CC(=O)OC(C)(C)C)Cc1c[nH]c2ccccc12	·	·	-4	·	·
C#CCOCCOCCOCCNc1nc(N2CCN(C(=O)CCCCCCCCCCNC(=O)[C@@H](CCSC)n3cc(CCO)nn3)CC2)nc(N2CCN(C(=O)CCCCCCCCCCNC(=O)[C@H](CCCN=C(N)N)n3cc(C[C@@H](C)CC)nn3)CC2)n1	·	·	43	1.5	·
CC(C)(C)OC(=O)NCc1ccc(NC(=O)c2nc[nH]c2C(=O)NCCNC(=O)c2[nH]cnc2C(=O)Nc2ccc(CNC(=O)OC(C)(C)C)cc2)cc1	·	·	81*	0.7	·
C#CCOCCOCCOCCNc1nc(N2CCN(C(=O)CCCCCCCCCCNC(=O)[C@H]([C@@H](C)CC)n3cc(CCCCCN)nn3)CC2)nc(N2CCN(C(=O)CCCCCCCCCCNC(=O)[C@H](CO)n3cc(CCCCCN)nn3)CC2)n1	·	·	56	0.3	·
Clc1cccc(-c2ccc(C3Nc4cccc5cccc(c45)N3)o2)c1	·	·	2	0.7	·
COC(=O)C1=C(C)N(Cc2ccccc2)C(=NCc2cccc(Cl)c2)N[C@H]1c1cccc(F)c1	·	·	98*	0.5	·
CN1CCN(C(=O)CCCN2C(=O)/C(=C/c3ccc(Cl)cc3)SC2=S)CC1	·	·	-11	-0.9	·
Cc1ccc(O)c(N)c1	·	·	-12	0.5	·
O=C1OC(=O)C2C3CCC(O3)C12 (configuration not stated)	·	·	0	-0.2	·
O=c1c(O[C@@H]2O[C@H](CO)[C@@H](O)[C@H](O)[C@H]2O)c(-c2ccc(O)cc2)oc2cc(O)cc(O)c12	·	·	-2	3.1	·
CN(NC1CC(=O)N(c2ccccc2)C1=O)c1ccccc1 (configuration not stated)	·	·	-1	-0.9	·
COc1cc2cc(Oc3ccc4ccc(=O)oc4c3)c(=O)oc2cc1O[C@@H]1O[C@H](CO)[C@@H](O)[C@H](O)[C@H]1O	·	·	-1	0.2	·
Nc1ncn(C2O[C@H](CO)[C@@H](O)[C@H]2O)c(=O)n1 (some centres not stated)	·	·	5	-0.4	·
O=C(NCc1ccc2c(c1)OCO2)c1cc([N+](=O)[O-])ccc1N1CCOCC1	·	·	13	1.0	·
Nc1c(Cl)ncnc1N/N=C/c1ccccn1	·	·	119*	-2.8	·
COc1ccc(Nc2nc(C)c(-c3ccccc3)s2)cc1	·	·	-3	0.0	·
O=C1NC(=S)S/C1=C\c1ccc(SCc2ccccc2)o1	·	·	8	0.6	·
COc1ccc(OC)c(-c2c3cc(O)c(=O)cc-3oc3cc(O)c(O)cc23)c1	·	·	1	-1.1	·
COc1cc(-c2[nH]nc3c2C(c2ccoc2)C(C#N)=C(N)O3)cc(OC)c1OC (configuration not stated)	·	·	0	-0.1	·
COc1ccc(-c2sc3cc4c(cc3c2C#CCO)OCO4)cc1	·	·	-1	0.1	·
C[N+](C)(CCCCCC[N+](C)(C)CCCN1C(=O)c2cccc3cccc(c23)C1=O)CCCN1C(=O)c2cccc3cccc(c23)C1=O	·	·	0	0.3	·
COCc1ccccc1C1=CC(=O)C[C@H](c2ccc(F)cc2)C1	·	·	-1	0.2	·
N#CCCS(=O)(=O)c1nnnn1-c1ccccc1	·	·	-13	2.1	·
CCOC(=O)[C@H]1[C@H]2COc3ccccc3[C@@H]2N2C(=O)[C@@H](C)NC(=O)[C@@]12C	·	·	-10	0.9	·
COc1cc(/C=C(\C#N)C(=O)Nc2cccnc2)ccc1OC(C)C	·	·	-3	0.5	·
COC(=O)C1=C(C(=O)OC)C(c2cc(Br)ccc2O)c2sc(=O)[nH]c2S1 (configuration not stated)	·	·	-6	1.2	·
CC(C)N=c1scc(-c2cccs2)n1/N=C/c1ccc(O)c(O)c1O	·	·	9	-0.2	·
Cc1ccc2nc(SC(C)C(=O)NC3CCCc4ccccc43)[nH]c2c1 (configuration not stated)	·	·	-5	0.5	·
CCOC(=O)[C@@H]1[C@H]2COc3cc(OC)ccc3[C@@H]2N2C(=O)N(c3ccc(F)cc3)C(=O)[C@@]12C	·	·	1	-1.9	·
COC(=O)C1=C(C)N(CC2CC2)C(=NCc2cccc(C(F)(F)F)c2)N[C@H]1c1ccccc1	·	·	-5	0.5	·
c1ccc2c(C3CCO3)cccc2c1 (configuration not stated)	·	·	-2	1.8	·
CCOC(=O)c1ccccc1NC(=O)c1ccc(Cl)c(S(=O)(=O)N2CCOCC2)c1	·	·	15	-0.9	·
Cc1ccccc1[C@]1(C)ON(c2ccccc2C(F)(F)F)C1=O	·	·	-12	?	·
CC(=O)Nc1ccc(Nc2cc(C)nc3c(-c4ccccc4)cnn23)cc1	·	·	1	0.0	·
O=C1[C@@H]2C3C=CC(O3)[C@@H]2C(=O)N1c1ccccc1	·	·	0	-0.5	·
C#CCOCCOCCOCCNc1nc(N2CCN(C(=O)CCCCCCCCCCNC(=O)[C@H](CO)n3cc(CCCCCN)nn3)CC2)nc(N2CCN(C(=O)CCCCCCCCCCNC(=O)[C@H](CCCN=C(N)N)n3cc(C[C@@H](C)CC)nn3)CC2)n1	·	·	89*	-0.9	·
CN(C)C/C=C/C(=O)Nc1cccc(-c2c[nH]c3ncnc(Oc4ccc(NC(=O)CC(=O)Nc5ccc(F)cc5)cc4F)c23)c1	·	·	-16	-0.7	·
O=C1C=C(c2ccc(Cl)nc2)C[C@@H](c2ccc3c(c2)OCO3)C1	·	·	1	0.3	·
CCCn1c(=O)c(C(=O)Nc2c(C)n(C)n(-c3ccccc3)c2=O)c(O)c2ccccc21	·	·	-3	0.0	·
CC[C@@H](C)[C@@H]1CN([C@@H](CN2CCC[C@H]2CN2C(N)=NC[C@@H]2Cc2ccccc2)C(C)C)C(=N)N1CCCC1CCCC1	·	·	-1	-0.4	·
O=C(NCc1ccccc1Br)c1cccc2c1C(=O)c1ccc(N3CCC(Cc4ccccc4)CC3)cc1S2(=O)=O	·	·	4	0.7	·
C=CCC[C@@H](Cc1ccc(F)cc1)C(=O)OC[C@H](Cc1c[nH]c2ccccc12)NC(=O)[C@@H](CC=C)CC(=O)N(CCO)Cc1ccccc1	·	·	-3	0.4	·
O=C(OC[C@H]1O[C@@H](OC(=O)c2cc(O)c(O)c(OC(=O)c3cc(O)c(O)c(O)c3)c2)[C@H](OC(=O)c2cc(O)c(O)c(OC(=O)c3cc(O)c(O)c(O)c3)c2)[C@@H](OC(=O)c2cc(O)c(O)c(OC(=O)c3cc(O)c(O)c(O)c3)c2)[C@@H]1OC(=O)c1cc(O)c(O)c(OC(=O)c2cc(O)c(O)c(O)c2)c1)c1cc(O)c(O)c(OC(=O)c2cc(O)c(O)c(O)c2)c1	·	·	12	-0.1	·
Going on with the list:
SMILES	T cruzi inh	Calb FLC	Beta apoptosis	Bfl-1 A1 inh	RanGTP-Imp inh
COc1cc(/C=N/Nc2ccc(Cl)cc2)ccc1OC(=O)c1cccs1	·	·	-7	1.1	·
Cn1cncc1C#Cc1ccc2cc(C3(O)CCCCC3)oc(=O)c2c1	·	·	2	-1.8	·
CCC(C)Sc1ccc(-c2nc3ccccn3c2NCc2ccccc2)cc1OC (configuration not stated)	·	·	8	-1.3	·
COc1cc(NS(=O)(=O)c2ccc(NC(=S)NC(=O)c3sc4ccccc4c3Cl)cc2)ncn1	·	·	-1	0.6	·
CC(=O)c1ccc(-c2csc(N3CCC(C(N)=O)CC3)n2)cc1	·	·	1	0.3	·
Nn1c(SCC(=O)Nc2cccnc2Cl)nnc1-c1ccccc1	·	·	-3	0.2	·
CCCNC(=O)C(Cc1ccc(I)cc1)NC(=O)C1CC1 (configuration not stated)	·	·	-4	0.7	·
C#CCOCCOCCOCCNc1nc(N2CCN(C(=O)[C@H](CCCN=C(N)N)n3cc(C(N)[C@H](C)CC)nn3)CC2)nc(N2CCN(C(=O)[C@H](CCCN=C(N)N)n3cc(C(N)[C@@H](C)CC)nn3)CC2)n1 (some centres not stated)	·	·	-7	-0.3	·
CCCC(C(=O)O)N1C(=O)/C(=C2\C(=O)N(C)c3ccccc32)SC1=S (configuration not stated)	·	·	1	0.4	·
CC(CCC(C)C(C)(C)C)[C@@H]1CC[C@H]2C3C[C@H](OS(O)(=S)=S)[C@H]4C[C@H](OS(O)(=S)=S)[C@@H](OS(O)(=S)=S)C[C@]4(C)[C@H]3CC[C@]12C (some centres not stated) (tested in a mixture with another compound)	·	·	-1&6	-0.1&2.1	·
COc1ccccc1/C=C1\CCCC2=C1Nc1nnnn1C2c1ccccc1OC (configuration not stated)	·	·	-20	0.4	·
Cc1cc(C)c(S(=O)(=O)/N=C2/C=C(Sc3ncn[nH]3)C(=O)c3ccccc32)cc1C	·	·	129*	0.5	·
CNC[C@H](Cc1cccc2ccccc12)NC[C@H](CCSC)NCC1CCC(C(C)(C)C)CC1 (some centres not stated)	·	·	-1	-0.7	·
C#CCOCCOCCOCCNc1nc(N2CCN(C(=O)CCCCCCCCCCNC(=O)[C@H](CO)n3cc(CCCSC)nn3)CC2)nc(N2CCN(C(=O)CCCCCCCCCCNC(=O)[C@@H]([C@H](C)O)n3cc(C)nn3)CC2)n1	·	·	9	1.5	·
O=C1C(Cc2ccccc2)Nc2ncnc(N3CCc4ccccc4C3)c2N1Cc1ccccc1 (configuration not stated)	·	·	3	-0.4	·

Some of the compounds tested (hit frequency here may not be typical).
